PrP 5UTR inh: suppresses PrP 5' UTR mRNA reporter expression. cell-based PrP 5' UTR mRNA reporter, plate reader. inhibition, % (no concentration beside the values). 340,000 tested, 0.35% active;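 active = every replicate at 50% or more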;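 note: 0 = median of the neutral control wells; tested in H4 reporter cells; numbers are from one replicate; inactives centre near -14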
Mtb hypoxia inh: Mtb hypoxia fluorescent reporter inhibition. M. tuberculosis hypoxia-regulated fluorescent reporter, fluorescence. fluorescence inhibition, % (test concentration not listed). 300,000 tested, 0.1% active. AID 1159583;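 active = 35 to 45% if threefold the growth effect, above 45% if 1.5-fold the growth effect; inactive = the rest, general growth blockers included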;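 note: wells of about 50 µL received 100 nL stock; 0% = vehicle wells and 100% = reference inhibitor wells; whole bacteria with a GFP reporter of the hypoxia response; strong numbers were not always called active; many hits fall short of the cut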
BJeLR lethal: kills HRASV12-expressing BJeLR cells; BJeLR (HRASV12) viability, CellTiter-Glo ATP luminescence, 48 h; reference of the scale not given here; inhibition, % (concentration not given with the values); 300,000 tested, 0.17% active;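 active = replicate mean above 50%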;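 note: 50 nL library stock added to about 25 µL; numbers are from one replicate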
Sa ugtP lethal: compounds lethal to S. aureus RN4220 ugtP deletion mutant; OD600 growth, 16 h; some inactives read as strong as hits; growth inhibition, % (no concentration beside the values); 330,000 tested, 0.54% active; AID 1259309;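 active = z-score under -3 and OD600 up to 0.15 on both plates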;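 note: plate controls were untreated wells for no effect and antibiotic for full effect; wells of about 80 µL received 100 nL stock; the first replicate is given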
Autofluor counter: compound fluorescence in toxin protease inhibitor counterscreen; compound autofluorescence counterscreen, microsphere flow cytometry; active compounds read high; fluorescence intensity (concentration not given with the values); 360,000 tested, 3.1% active;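 active = at least 3 SD above the mean of all compounds, about 16000 in these data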;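 note: 100 nL of 1 mM stock went into each well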
Sa RN4220 lethal: kills Staphylococcus aureus RN4220. AID 1259311. inhibition, % (concentration not given with the values). S. aureus RN4220 growth, OD600, 16 h. 330,000 tested, 0.33% active;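 active = z-score of -3 or lower and OD600 up to 0.18 on both plates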;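 note: plate controls were untreated cells for no effect and reference antibiotic for full effect; stock transfer was 100 nL into about 80 µL; one replicate is shown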
Mtb hypoxia inh growth: recorded beside Mtb hypoxia inh, whose call it bears; growth inhibition, %; measured here: M. tuberculosis growth (absorbance);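 0% = vehicle and 100% = reference antibiotic; read after six days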
An asterisk follows results filed as active; x = not tested or not shown.

The opening 3 records (preview)
SMILES	PrP 5UTR inh	Mtb hypoxia inh	Mtb hypoxia inh growth	BJeLR lethal	Sa ugtP lethal	Autofluor counter	Sa RN4220 lethal
COCCCN1C(=O)c2ccc(C(=O)N3CCN(c4ccccc4OC)CC3)cc2C1=O	-14	-7	3	4	1	5646	0.7
COc1ccc(-n2nnc3c(=O)n(CC(=O)OCc4ccccc4)cnc32)cc1	-21	9	5	-8	9	5432	-0.8
Cc1cc(Cl)ccc1Oc1cccc(C(=O)/C(C#N)=C/N(C)C)c1	-24	x	x	5	-2	2888	7.5

The list itself, repeating the preview:
SMILES	PrP 5UTR inh	Mtb hypoxia inh	Mtb hypoxia inh growth	BJeLR lethal	Sa ugtP lethal	Autofluor counter	Sa RN4220 lethal
COCCCN1C(=O)c2ccc(C(=O)N3CCN(c4ccccc4OC)CC3)cc2C1=O	-14	-7	3	4	1	5646	0.7
COc1ccc(-n2nnc3c(=O)n(CC(=O)OCc4ccccc4)cnc32)cc1	-21	9	5	-8	9	5432	-0.8
Cc1cc(Cl)ccc1Oc1cccc(C(=O)/C(C#N)=C/N(C)C)c1	-24	x	x	5	-2	2888	7.5
Cc1ccccc1S(=O)(=O)NCC1CCCO1 (centres undefined)	-35	5	-2	-3	9	4146	-0.8
NS(=O)(=O)c1ccc(N2CCN(CCOc3ccc(Cl)cc3)CC2)nc1	-16	13	4	-4	15	4261	1.6
CC12CCC(CC1=NOC(=O)c1c(F)cccc1F)C2(C)C (centres undefined)	x	11	0	x	4	x	2.2
COC(=O)CN1C(=S)N(c2ccc(Cl)cc2)C(=O)C1CC(=O)Nc1ccc(Cl)cc1 (centres undefined)	-8	0	11	1	-20	2911	3.7
COc1ccc(-n2nnnc2CNC(=O)c2ccc(S(=O)(=O)N3CCOCC3)cc2)cc1	-47	4	-2	-9	4	8501	1.5
CC(C)(C)C(=O)Nc1ccc2c(c1)OCCOCCOc1cc(NC(=O)C(C)(C)C)ccc1OCCOCCO2	-16	36*	22*	1	5	3586	4.8
COc1ccc(C2=CSC3=NCCN23)cc1Cl	-70	x	x	-3	x	3729	x
O=C(NCc1cccc(C(F)(F)F)c1)c1cc(Cl)cc(Cl)c1	-29	5	4	15	-17	11833	8.0
N#CCCN(Cc1cccnc1)C(=S)NC(=O)c1ccc(S(=O)(=O)N2CCCC2)cc1	8	-6	7	-10	3	4420	11

Shown as a markdown table: entries from further up
| SMILES | PrP 5UTR inh | Mtb hypoxia inh | Mtb hypoxia inh growth | BJeLR lethal | Sa ugtP lethal | Autofluor counter | Sa RN4220 lethal |
| --- | --- | --- | --- | --- | --- | --- | --- |
| COCCCN1C(=O)c2ccc(C(=O)N3CCN(c4ccccc4OC)CC3)cc2C1=O | -14 | -7 | 3 | 4 | 1 | 5646 | 0.7 |
| Cc1cc(Cl)ccc1Oc1cccc(C(=O)/C(C#N)=C/N(C)C)c1 | -24 | x | x | 5 | -2 | 2888 | 7.5 |
| N#CCCN(Cc1cccnc1)C(=S)NC(=O)c1ccc(S(=O)(=O)N2CCCC2)cc1 | 8 | -6 | 7 | -10 | 3 | 4420 | 11 |

One compound at a time, from the list above. Order of screens: PrP 5UTR inh, Mtb hypoxia inh, Mtb hypoxia inh growth, BJeLR lethal, Sa ugtP lethal, Autofluor counter, Sa RN4220 lethal
CC12CCC(CC1=NOC(=O)c1c(F)cccc1F)C2(C)C (centres undefined) is listed as x, 11, 0, x, 4, x, 2.2
COc1ccc(C2=CSC3=NCCN23)cc1Cl is listed as -70, x, x, -3, x, 3729, x
CC(C)(C)C(=O)Nc1ccc2c(c1)OCCOCCOc1cc(NC(=O)C(C)(C)C)ccc1OCCOCCO2 is listed as -16, 36*, 22*, 1, 5, 3586, 4.8

Following part
SMILES	PrP 5UTR inh	Mtb hypoxia inh	Mtb hypoxia inh growth	BJeLR lethal	Sa ugtP lethal	Autofluor counter	Sa RN4220 lethal
COc1ccc(C(=O)NCc2ccccc2OC)cc1	-4	11	7	-5	-3	21799*	6.5
CCN(CC(=O)Nc1ccc(C(C)=O)cc1)CC(=O)Nc1ccccc1C(F)(F)F	0	-2	5	8	1	4392	2.9
CC(=O)Nc1ccc(C=NNC(=O)CNC(=O)c2ccccc2)cc1	x	8	9	x	2	x	4.2
CCN(CC(=O)NC(=O)NCc1ccccc1)Cc1ccccc1	-5	7	0	1	1	6023	-0.5
CCCCn1nnc(NC(=S)NC(=O)c2ccc(OCC)c([N+](=O)[O-])c2)n1	-7	-1	13	-4	6	5911	2.6
COc1cc(NC(=O)CCS(=O)(=O)c2ccc3nc(C)sc3c2)cc(OC)c1OC	-12	-6	1	-5	-2	4289	-3.2
COc1ccc(N2CCN(C3CCCN(C(=O)CCN4CCCCO4)C3)CC2)cc1 (centres undefined)	-9	8	6	-3	4	5559	1.4
O=C(Cn1cc(C(F)(F)F)ccc1=O)Nc1ccccc1	-13	15	-1	-15	0	3548	6.1
CCOC(=O)C1C(=O)C(C(=O)OCC)C(c2cccnc2)NC1c1cccnc1 (centres undefined)	-13	13	7	-3	0	3125	3.7
COc1ccc(C2/C=C\CN(CC3CC3)CC(=O)N2Cc2ccc(F)cc2)cc1 (centres undefined)	6	x	x	-1	x	4659	x
CC(=O)n1cc(/C=C2/N=C(c3ccccc3)OC2=O)c2ccccc21	-9	13	3	-7	-1	10609	-1.2
CC(C)=NNc1nc(-c2ccc(N3C(=O)CCC3=O)cc2)cs1	-10	0	4	-2	-8	5199	6.0
COc1ccc(C(=O)Nc2cc(C(C)=O)c(/C=C/N(C)C)oc2=O)cc1	-12	22	25	7	-5	16251*	-1.4
O=C(OCc1cc(Cl)ccc1OC(F)F)c1cccnc1	-6	15	-2	-2	8	11528	11
COc1ccc2[nH]c3c(c2c1)CCN1C(=O)N([C@@H](C)C(=O)NC2CC2)C(=O)[C@]31C	-3	x	x	-3	-1	6218	2.0
CCN(CC)S(=O)(=O)c1cc([N+](=O)[O-])ccc1N=Nc1c(O)n(C)c2ccccc12	-2	3	-5	3	7	2146	2.2
O=Cc1c(Cl)cccc1Cl	-14	11	8	x	0	5942	10
COc1ccc(N/N=C/c2c(O)n(-c3ccc(C)c(C)c3)c(=O)[nH]c2=O)cc1	7	0	-3	-13	0	2037	-0.1
CC1(C)Oc2ccc3ccc(=O)oc3c2C(/C=N/O)C1=O (centres undefined)	-14	x	x	-11	x	2029	x
CCOC(=O)C1C2C=CC3(CN(Cc4cccs4)C(=O)C13)O2 (centres undefined)	2	x	x	7	-1	2963	0.7
O=C1OC(Oc2ccccc2)(c2ccccc2)c2ccccc21 (centres undefined)	x	5	3	13	12	8294	4.6
Nc1ccc(C(=O)N/N=C/c2cn(Cc3cccc(F)c3)c3ccccc23)cc1	27	x	x	3	x	5808	x
COc1ccc(/C=C2\CCn3c2nc2cc(C(=O)O)ccc2c3=O)cc1	-12	11	5	4	2	3201	-0.3
CSCC[C@H](NC(=O)Nc1cccc(C(F)(F)F)c1)C(=O)O	-19	x	x	0	x	2955	x
O=C(c1cc(Br)ccc1OC(F)F)N1CCN2CCCC2C1 (centres undefined)	-19	7	3	x	1	4486	2.1
COc1ccc(OC)c2sc(NC(=O)C3CC3)nc12	-20	11	10	-3	-10	5754	-8.0
COc1ccccc1NC(=S)N(CCN1CCCCCC1)Cc1cccs1	-13	1	-4	7	25	3212	8.8
Cc1nccn1CCCNC(=O)CC1C(=O)NCCN1Cc1ccccc1C(F)(F)F (centres undefined)	-10	-1	-7	8	1	4870	2.9
COc1ccc(CCNC(=O)C2CC3Cn4c(nc5ccccc54)C3N2c2ccccc2)cc1 (centres undefined)	-17	5	8	-6	-2	3253	2.7
CNC(=O)CN1C(=O)C2C3C=CC(C3)C2C1=O (centres undefined)	-15	7	7	-11	4	8908	4.5
CCOP(=O)(c1ccccc1)C1(C#N)CCCC1 (centres undefined)	-5	5	5	-4	-5	2542	1.9
COc1cc(/C=N/Nc2ccc(C(F)(F)F)cn2)cc(OC)c1O	-12	x	x	1	x	2176	x
CCc1nc2ccccc2c(=O)n1-c1ccc2ccccc2c1	-25	x	x	0	2	4198	1.5
CC(=O)c1ccc(NC(=O)C2=CC(c3cccs3)=NS(=O)(=O)N2C)cc1	-10	10	9	10	-5	6072	3.6
CNC(=S)Nc1ccc2nc(C)oc2c1	-2	15	-1	-3	3	3462	1.3
CN(Cc1cn(C)nc1-c1cccc(Cl)c1)CC1CCCCO1 (centres undefined)	-24	9	0	-1	2	4047	1.3
Cc1cccc2cc(C#N)c(NCCNS(=O)(=O)c3ccccc3)nc12	-17	-14	5	1	2	4518	-8.3
COC(=O)NCc1ccc(S(=O)(=O)N2CCOCC2)cc1	-26	-1	3	13	-2	9088	0.8
O=[N+]([O-])c1cc(S(=O)(=O)Nc2cccc(C(F)(F)F)c2)ccc1-n1nnc2ccccc21	-10	11	1	5	-7	2550	2.3
COc1cc(C=NNC(=O)CC#N)cc(Br)c1O	x	3	-2	x	-4	x	-2.7
COC(=O)Nc1ccc(S(=O)(=O)Nc2ccc(O)cc2)cc1	-23	2	-2	9	-1	10381	4.0
CCOCCOC(=O)CCSc1n[nH]c(=O)[nH]c1=O	5	3	4	7	5	5143	4.7
COCC(C)N=C1NN=C(c2cc(C)n(Cc3ccccc3Cl)c2C)CS1 (centres undefined)	-1	7	12	19	5	2619	0.7
CCCCN(C)CCC(=O)Nc1ccc(Cl)cc1	-4	4	-2	8	10	2122	1.9
COC(=O)COc1ccc(S(=O)(=O)NC2CCCCCC2)cc1	-3	-3	-7	-4	13	5085	3.7
CCOCCCNC(=O)C(c1ccc(C)cc1)N(Cc1ccc2c(c1)OCO2)C(=O)CNC(C)=O (centres undefined)	0	3	-7	-4	4	3476	5.4
Cc1cccc(C(=O)Nc2ncc(CN3CCOCC3)s2)c1	0	-6	-7	-1	12	9398	0.6
CCOC(=O)C(CC)(CCC(=O)O)c1csc(Nc2ccc(C)cc2)n1 (centres undefined)	0	4	2	6	-2	2684	6.7

Individual results from the list.
Cc1cccc(C(=O)Nc2ncc(CN3CCOCC3)s2)c1 in Mtb hypoxia inh growth = -7
COC(=O)NCc1ccc(S(=O)(=O)N2CCOCC2)cc1 in Autofluor counter = 9088
COC(=O)COc1ccc(S(=O)(=O)NC2CCCCCC2)cc1 in Mtb hypoxia inh growth = -7
COC(=O)Nc1ccc(S(=O)(=O)Nc2ccc(O)cc2)cc1 in Mtb hypoxia inh = 2

Assay outcomes: PubChem BioAssay, several laboratories

This is a random part of the collection. Share with any hit: about 4%.
